TRPML1 inh: human mucolipin-1 channel inhibition | 390,000 tested, 0.02% active | Q9GZU1 | TRPML1-inducible cells, Ca2+ dye fluorescence, FDSS; hits give low values; inhibition of EC80 agonist-evoked calcium signal | activity change, negative = inhibition, % (no concentration beside the values); in the data active means activity change below about -50%; inconclusive means about -30% to -50%; inactive means above about -30%;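 note: stimulus is agonist 54-4 at its EC80 concentration; % is set by controls: 0 for no effect and ±100 for the full control effect; compound concentration not given in the record; the text of the record puts the active cut at -80%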
Target sequence (Q9GZU1 whole entry, looked up): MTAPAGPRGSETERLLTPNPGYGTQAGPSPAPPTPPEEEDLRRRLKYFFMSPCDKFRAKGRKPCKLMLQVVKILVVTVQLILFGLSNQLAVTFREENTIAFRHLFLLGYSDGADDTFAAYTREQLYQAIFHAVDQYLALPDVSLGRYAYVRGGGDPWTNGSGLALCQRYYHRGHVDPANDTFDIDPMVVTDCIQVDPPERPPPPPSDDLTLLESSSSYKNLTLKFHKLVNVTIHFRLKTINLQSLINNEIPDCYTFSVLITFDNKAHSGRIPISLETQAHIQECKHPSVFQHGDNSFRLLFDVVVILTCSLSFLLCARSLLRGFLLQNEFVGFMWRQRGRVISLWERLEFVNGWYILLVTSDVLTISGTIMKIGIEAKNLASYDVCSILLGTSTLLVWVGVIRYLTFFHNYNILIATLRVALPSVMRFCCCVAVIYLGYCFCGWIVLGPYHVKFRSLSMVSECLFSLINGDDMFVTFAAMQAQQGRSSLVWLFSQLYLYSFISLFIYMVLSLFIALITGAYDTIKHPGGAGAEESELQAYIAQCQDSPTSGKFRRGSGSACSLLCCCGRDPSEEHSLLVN
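TRPML1-DL cells, Tet-induced overnight (~16 h, 37 °C) at 1,500 cells/well, were loaded with Ca8 no-wash dye plus quencher for 45-90 min at room temperature. Compounds were pinned during FDSS kinetic reading; agonist 54-4 at EC80 (4 uM final) then added.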
D2 ag: activates the human D2 dopamine receptor | DiscoveRx PathHunter D2 beta-arrestin, luminescence, 90 min; 100% = 57 uM dopamine signal | activation, % (concentration not given with the values) | 360,000 tested, 0.084% active | AID 624465; in the data active = activation above about 40%; inconclusive = about 15% to 40%; inactive = below about 15%; note: compound concentration not given in the record; the text of the record calls up to 30% inactive
Target sequence (P14416 whole entry, looked up): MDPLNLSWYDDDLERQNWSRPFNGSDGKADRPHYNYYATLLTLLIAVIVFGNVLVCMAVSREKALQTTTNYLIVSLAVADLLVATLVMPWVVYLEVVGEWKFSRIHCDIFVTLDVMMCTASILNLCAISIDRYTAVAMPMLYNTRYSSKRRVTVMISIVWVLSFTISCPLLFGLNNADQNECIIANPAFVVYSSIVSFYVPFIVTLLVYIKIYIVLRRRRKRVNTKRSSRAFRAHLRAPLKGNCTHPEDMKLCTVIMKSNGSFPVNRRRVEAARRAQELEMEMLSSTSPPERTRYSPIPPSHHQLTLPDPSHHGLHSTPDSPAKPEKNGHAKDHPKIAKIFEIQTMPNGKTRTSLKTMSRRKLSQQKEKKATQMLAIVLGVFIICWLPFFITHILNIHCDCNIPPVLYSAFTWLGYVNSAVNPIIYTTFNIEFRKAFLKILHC
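Agonist mode: compounds alone added to overnight-plated D2 PathHunter cells for 90 min at 37 C, with 57 uM final dopamine (EC100) defining full response. Beta-arrestin recruitment detected by chemiluminescent reagent, read after 1 h at ambient temperature.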
TRPML1 ag: agonists of human TRPML1 channel; TRPML1-expressing cells, Ca2+ dye fluorescence, FDSS; host cell line not named in the record; reference of the full effect not given here; activation, % (concentration not given with the values); Q9GZU1; 410,000 tested, 0.12% active; in the data active = activation above about 50%; inconclusive = about 30% to 50%; inactive = below about 30%; note: 0% is about no effect; the text of the record puts the active cut at 80%
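Cells: TRPML1-DL, 1X Tet inducer, ~16 h at 37 degrees C/5% CO2. Dye: ABD Ca8 no-wash + quencher, 45-90 min RT. Read: 10 s baseline, compound add, 110 s agonist phase; 54-4 EC80 (4uM final), 110 s antagonist phase.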
CtBP-E1A blk: CtBP/E1A binding inhibition. AlphaScreen GST-E1A/His-CtBP binding, 1536-well; hits give low values; control for the full effect not named in the record. activity change, % (test concentration not listed). 340,000 tested, 0.49% active; in the data active means activity change below about -65%; inconclusive means about -30% to -65%; inactive means above about -30%; note: % is set by controls: 0 for no effect and ±100 for the full control effect; compound concentration not given in the record
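Homogeneous bead-based format: GST-tagged E1A captured on glutathione donor beads, His-tagged CtBP on nickel acceptor beads; compounds precede bead addition by 2 h at 37 °C.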
Six1-Eya2 blk: inhibitors of human Six1/Eya2 interaction | 360,000 tested, 0.56% active | activity change, % (concentration not given with the values) | AlphaScreen GST-Six1/His-Eya2 binding, biochemical; hits give low values; control for the full effect not named in the record | AID 651725; in the data active = activity change below about -65%; inconclusive = about -30% to -65%; inactive = above about -30%; note: % is set by controls: 0 for no effect and ±100 for the full control effect
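AlphaScreen luminescence read after one hour at 37 °C in darkness. Pin-transferred compounds met GST-Six1 and His-Eya2 protein (5X stock 250 nM/500 nM) plus glutathione donor and Ni-chelate acceptor beads (5X, 50 ug/mL).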
PINK1 expr mod: modulators of PINK1 expression. 410,000 tested, 0.2% active. AID 624263. Potency, µM (titrated, usually from 76.6 µM), without a hit: at the top dose activation (PINK1 increase), usual class: activators. PINK1 immunofluorescence, high-content cytometry, 24 h; active = well fitted activation curve with a large enough effect; inconclusive = small, poorly fitted or top-dose-only effect; inactive = flat fitted curve, though single readings scatter; cell line not stated here;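 note: potency is the fitted concentration of half-maximal effect; % of control where 0% means no effect; nearly all actives have a fitted effect of over 65% in size; a mitochondrial uncoupler was the plate control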
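Cells are seeded, rested 12 hours, then given compound at five concentrations or DMSO for 24 hours. After fixation, blocking and antibody staining, PINK1 amount and mitochondrial localization are scored; CCCP serves as control.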
An asterisk follows results filed as active; u = inconclusive; x = no result given; & = joins results of further samples; [ ] = remark or other dose.

SMILES	TRPML1 inh	D2 ag	TRPML1 ag	CtBP-E1A blk	Six1-Eya2 blk	PINK1 expr mod
CCn1cc(S(=O)(=O)c2ccccc2)c(=O)c2cc(F)c(F)cc21	-2	x	-0.3	x	x	-2.3%
CCc1cccc2c1NC1(CCCC1)CC2C (configuration not stated)	36	-3.3	0.5	-12	-15	u
CC(C)(C)C1CCC(=NNC(=O)CN(c2ccccc2)S(C)(=O)=O)CC1 (configuration not stated)	-5	2.3	0.0	3	5	-0.5%
Cc1cccc(C(=O)NC(=O)Nc2ccc(-c3cc(C(F)(F)F)nn3-c3ccccc3)cc2)c1	-5	x	0.7	x	x	1.0%
O=C(O)CC/C(=N\NC(=O)CNC(=O)c1cccc(Cl)c1)c1ccccc1	3	-3.0	3.6	-14	3	-0.7%
C[C@H](CO)N1C[C@H](C)[C@@H](CN(C)S(=O)(=O)c2cccs2)Oc2ccc(NS(=O)(=O)c3ccccc3)cc2C1=O	-6	0.3	-0.1	0	4	1.0%
CCc1cccc(OCC(=O)Nc2c[nH]c(=O)[nH]c2=O)c1	0	1.2	-0.5	x	2	0.7%
O=S(=O)(CC12C3C4C5C1C2C(Br)(C43)C51OCCO1)c1ccccc1 (configuration not stated)	-6	-1.0	-0.4	2	10	0.6%
Cn1c(=O)c(=O)n(C)c2cc(S(=O)(=O)N3CCCC3C(=O)NCc3cccs3)ccc21 (configuration not stated)	3	-0.9	-0.6	10	2	0.5%
CCCN1C(=O)C(O)(C2COC(C)(C)CC2=O)c2ccccc21 (configuration not stated)	12	-3.4	0.3	9	15	1.1%
Cc1ccccc1C(=O)Nc1nnc(-c2ccco2)s1	1	1.7	1.3	-1	0	-0.5%
Cc1cc(Br)ccc1N=C1NC(=O)CS1	-12	-3.4	0.4	9	8	1.8%
COc1ccc(CNC(=O)C(NS(=O)(=O)c2cccc3nsnc23)C(C)C)cc1 (configuration not stated)	-18	1.3	1.5	6	4	-1.0%
COc1ccc(CCNC(=O)CCc2c(C)nc3cc(-c4ccccc4)nn3c2C)cc1OC	12	x	0.2	x	x	0.7%
C/C(=N\OC(=O)c1ccc(Br)cc1)c1ccccn1	25	0.3	-0.1	0	0	0.9%
COc1ccc(OC)c(NC(=O)c2c(N3CCCC3=O)c3cc(OC)ccc3n2C)c1	-16	x	1.0	x	x	1.1%
C[C@@H](C(=O)OCn1nnc2ccccc2c1=O)N1C(=O)C2CCCCC2C1=O (some centres not stated)	-6	-4.9	0.9	x	7	-0.1%
CCOC(=O)Cn1c(=O)oc2cc(S(=O)(=O)Nc3cc(Cl)ccc3OC)ccc21	5	2.9	2.1	2	0	2.7%
O=C1CC(c2ccccc2)Oc2ccc(Cl)cc21 (configuration not stated)	31	-2.4	5.2	27	44	12%
COc1ccccc1N1CCN(C(=O)c2c(-c3c(F)cccc3Cl)noc2C)CC1	-9	-4.3	0.8	0	17	6.4%
CCn1c(=O)c(C(=O)NCCCO)c(O)c2ccccc21	15	-0.8	-1.2	-3	-2	-3.8%
O=C(/C=C/c1cccs1)N1CCCCC1	-6	-2.8	-0.7	0	0	-0.6%
CC(=O)N1CCN(c2ccccc2NC(=O)c2cccc3c(Cl)cccc23)CC1	0	3.5	0.7	6	3	0.6%
CCc1nnc(NC(=S)Nc2ccccc2)s1	8	-9.5	1.8	5	2	-0.5%
COc1ccc(NC(=O)c2cc(S(=O)(=O)N3CCCC3)c[nH]2)cc1	-14	-30	-0.5	0	-10	-1.4%
COc1ccc(C(=O)N2CCC(C)(C(=O)O)C2)cc1OC (configuration not stated)	-6	-1.5	0.3	13	4	1.2%
O=c1c(Cc2c(F)cccc2Cl)c(O)ccn1Cc1ccc(F)cc1	-2	-3.4	-0.5	1	4	0.5%
CCS(=O)(=O)N1CCC(C(=O)N2CCN(c3ccccc3)CC2)CC1	-16	3.3	3.9	14	4	3.7%[38.3 µM]
Cc1nc(SCC(=O)NC2CCCC2)[nH]c(=O)c1C	-4	-0.9	-0.6	3	-1	0.0%
CCOc1cc(Br)cc(/C=N/NC(=O)c2cccnc2)c1O	40	-8.3	0.8	-92*	-67*	1.2%
COc1cccc(/C=N/NC(=O)CNC(=O)c2cccnc2)c1O	-3	-0.9	0.8	-87*	-71*	1.6%
Cc1cc(OCC(=O)Nc2ccc(S(=O)(=O)N3CCN(C)CC3)cc2)ccc1Cl	-7	-1.2	1.6	-1	-10	-2.4%
Cc1nc(CSc2n[nH]c(=O)n2-c2ccccc2)cs1	40	-6.0	-0.5	x	10	1.1%
CC(C)C(=O)n1nc(-c2cccnc2)nc1NCc1cccs1	18	0.6	-0.1	4	0	0.2%
O=C(CNS(=O)(=O)c1ccc2c(c1)OCCCO2)N1CCN(c2ccc(F)cc2)CC1	-8	0.0	0.8	-1	-1	-1.8%
CC(=O)Nc1cccc(OCCCNS(=O)(=O)c2ccc(C#N)cc2)c1	14	-4.4	5.5	2	3	-0.1%

Reformatted with two lines to a compound: part of the list above.
The line under a structure holds: TRPML1 inh | D2 ag | TRPML1 ag | CtBP-E1A blk | Six1-Eya2 blk | PINK1 expr mod
CC(=O)Nc1cccc(OCCCNS(=O)(=O)c2ccc(C#N)cc2)c1
    14 | -4.4 | 5.5 | 2 | 3 | -0.1%
O=C(CNS(=O)(=O)c1ccc2c(c1)OCCCO2)N1CCN(c2ccc(F)cc2)CC1
    -8 | 0.0 | 0.8 | -1 | -1 | -1.8%
COc1cccc(/C=N/NC(=O)CNC(=O)c2cccnc2)c1O
    -3 | -0.9 | 0.8 | -87* | -71* | 1.6%

Going on with the list:
SMILES	TRPML1 inh	D2 ag	TRPML1 ag	CtBP-E1A blk	Six1-Eya2 blk	PINK1 expr mod
Cc1[nH][nH]c(=O)c1N=Nc1ccc(F)cc1	4	-3.4	1.9	-16	-7	-2.5%
COc1ccc(C(=O)Nc2cccc(OC(=O)c3ccc(C)c(C)c3)c2)cc1	2	-3.6	1.2	2	19	0.1%
CCOC(=O)/C(C#N)=C/c1cc2ccc(C)cc2nc1Cl	10	0.1	-0.2	10	4	5.7%
COc1cc(/C=C2\SC(=S)N(Nc3ncc(C(F)(F)F)cc3Cl)C2=O)cc(OC)c1OC	51	-2.9	2.7	-10	-24	u
Cc1cccc(-c2nc(CN3CCCC(C(=O)NC4CCCCC4)C3)c(C)o2)c1 (configuration not stated)	-7	-2.1	0.8	-7	-7	6.1%[38.3 µM]
CCCCN1CC(COc2ccccc2)Oc2cccc(F)c2S1(=O)=O (configuration not stated)	49	-1.2	1.4	21	15	1.4%
CCC1CN(C(=O)Nc2cccc(C)c2)c2cc(C)ccc2O1 (configuration not stated)	51	-2.0	1.0	-23	-7	1.9%
O=C(Nc1cccc(NC(=O)c2ccc(Br)o2)c1)c1ccccc1	5&32	2.5	-0.1&-1.0	-2	-8	-2.3%&-1.6%
Cc1cc(OCC(=O)N2CCC(C(N)=O)CC2)c2c(C)cc(=O)oc2c1	x	-2.2	x	15	6	-0.9%
Cn1c(C(=O)NCCCN2CCN(c3ccccc3F)CC2)cc2c(=O)[nH]c3ccccc3c21	-14	u	-0.7	u	u	9.3%
Cc1cc(OCC(=O)NC(C)(C)C)ccc1Cl	19	2.5	1.8	12	11	4.2%
COc1ccc(CCNC(=O)c2c([S-])n(-c3ccc(C)cc3)c3cccc[n+]23)cc1	12	1.0	1.1	-16	-16	1.1%
COc1ccccc1NC(=O)c1c(N=Cc2c(O)ccc3ccccc23)cnn1C	37	0.8	2.9	-3	7	-0.1%
Cc1cccc(NC(=O)CSc2nc(=O)n(Cc3ccncc3)c3c2CCC3)c1C	-5	x	-0.4	x	x	-1.5%
Cc1ccc(NC(=O)c2sc3nc4c(cc3c2N)CN(Cc2ccccc2)CC4)cc1	10	x	2.5	x	x	12%
COc1ccc(NC(=O)C2C3C=CC4(O3)C2C(=O)N(CCN2CCCCC2)C4C(=O)NC2CCCC(C)C2C)cc1 (configuration not stated)	-7	-0.8	-0.1	-26	-5	2.8%
COC(=O)[C@@H]1CCCN1C(=O)CCc1nnc(CCC2CCCCC2)o1	14	-3.4	0.0	1	8	-0.8%
COc1ccc(Cn2c(=S)[nH]c3cc(C(=O)NCCCN4CCOCC4)ccc3c2=O)cc1	-18	-3.7	-0.4	0	-24	5.4%
COc1cc(C(=O)NC2CCCc3ccccc32)cc(OC)c1OC (configuration not stated)	-14	-1.5	0.0	2	4	-0.2%
Cc1cc(NC(=O)c2ccco2)c(=O)n(Cc2c(F)cccc2Cl)c1	18	-3.8	-0.1	0	-9	0.7%
COCCN(C(=O)COC(=O)CCC1CCCCC1)c1c(N)n(Cc2ccccc2)c(=O)[nH]c1=O	-4	-0.7	-0.2	-1	-3	2.7%
COc1ccc(-c2nc(-c3ccccn3)nc(N3CCN(C)CC3)c2C#N)cc1	-4	-1.3	-0.5	u	-1	7.2%
COc1ccc(-c2csc(Nc3cccc(C)n3)n2)cc1	14	2.0	-0.2	-3	5	8.8%
O=C(CCC(=O)N1CCOc2ccc(Cl)cc21)N1CCN(c2ccccn2)CC1	1	-5.1	-0.2	-16	-4	2.3%
Cc1nc2ccc(F)cc2cc1C(=O)Nc1cccc(Cl)c1C	2	-0.9	-0.2	-2	0	4.5%
Cc1nnc(SCC(=O)Nc2sc3c(c2C#N)CCCCC3)n1N	-10	-2.6	-0.5	-10	5	-1.2%
COc1ccc(S(=O)(=O)N2CCC(C(=O)N[C@H](C(=O)NC3CCCC3)C(C)C)CC2)cc1	-9	-3.8	-0.9	6	3	1.9%
Cc1ccc2nc(/C(C#N)=C/c3ccc(-c4cccc([N+](=O)[O-])c4)o3)[nH]c2c1	7	-1.8	5.0	0	17	u
Cc1ccc2c(Cl)cc(Cl)c(OCC(=O)N3CCOCC3)c2n1	-2	-6.8	0.3	1	1	3.0%
O=C1CSC(c2cn(-c3ccccc3)nc2-c2cc3ccccc3oc2=O)N1Cc1ccco1 (configuration not stated)	26	-3.7	1.3	-2	-17	4.6%
O=C(CSc1n[nH]c(=O)n1-c1cccnc1)Nc1ccccc1	-4	2.0	0.6	-1	2	-0.3%
Cc1ccc(NC(=O)C(C)N2C(=O)c3ccccc3C2=O)nc1 (configuration not stated)	6	6.0	-0.5	1	-2	0.6%
Nc1nc(CSc2ncn[nH]2)nc(Nc2ccc(F)cc2)n1	-18	-2.3	0.0	2	-2	1.8%
Cc1cc(C)c(NC(=O)CCCC(=O)O)c(Cl)c1	21	0.4	-0.3	7	1	-1.1%
CC1CCN(C(=S)NC(=O)c2cccs2)CC1	14	1.5	1.3	4	-4	0.7%
Cc1cc(C)cc(OC(C)C(=O)Nc2ccccc2C(=O)NCc2cccnc2)c1 (configuration not stated)	5	-1.4	0.2	-13	7	3.6%
CC(C)OC(=O)NCCOC(=O)Nc1cccc(Cl)c1	14	-1.5	0.2	7	1	2.3%

Whole records, quoted from the list:
Cc1nc2ccc(F)cc2cc1C(=O)Nc1cccc(Cl)c1C reads TRPML1 inh = 2; D2 ag = -0.9; TRPML1 ag = -0.2; CtBP-E1A blk = -2; Six1-Eya2 blk = 0; PINK1 expr mod = 4.5%
Cc1ccc2c(Cl)cc(Cl)c(OCC(=O)N3CCOCC3)c2n1 reads TRPML1 inh = -2; D2 ag = -6.8; TRPML1 ag = 0.3; CtBP-E1A blk = 1; Six1-Eya2 blk = 1; PINK1 expr mod = 3.0%

Bioassay records (PubChem BioAssay)
